Assay outcomes from PubChem.
Tg IFNy HTS = inhibitors of Toxoplasma gondii growth with IFN-gamma | Toxoplasma gondii growth in IFN-gamma-treated host cells; stronger effect = lower value; reference of the scale not given here | activity change, negative = inhibition, %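 (about 20 µM by stock and volumes)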 | 3.8% of 69,000 active | AID 1259416;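 active means below -70%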;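 further: host cells are HeLa cells infected with Toxoplasma gondii; parasite growth read as luciferase light; one replicate is shown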
* = called active by the depositor; & = joins results of further samples; ! = repeats disagree.

SMILES	Tg IFNy HTS
COCCN1CCOCC12CCN(C(=O)c1conc1C)CC2	-23.7
CN1CC2(CCCN(CCc3ccccn3)C2)OC1=O (centres undefined)	17.4
CN1CCCC12CCCN(Cc1ccco1)C2 (centres undefined)	-52.0
Cc1cccnc1N1CC2(CCN(Cc3cccnc3)C2)C1	6.8
O=C(O)CN1CC2(CCN(Cc3ccncc3)C2)C1	-16.3
COc1ccc(CCNC(=O)c2cc3cccnc3n(Cc3ccccc3)c2=O)cc1OC	14.9
C/C=C/c1ccc(C2[C@@H]3CN(C(=O)C4CCOCC4)C[C@H]2N3)cc1 (some centres undefined)	16.8&-43.2
COc1cccc(NC(=O)c2c(O)c3cccnc3n(Cc3ccccc3)c2=O)c1	193.5
Cc1cccc(CN2C(=O)CC[C@@H]3[C@@H]2CCN3Cc2ccoc2)n1	-6.2
CCN1C[C@H]2CN(c3cc(OC)ncn3)CCC[C@]2(C(=O)O)C1	97.8
CC(C)NC(=O)C1CC2CN(Cc3ccncc3)CC1O2 (centres undefined)	3.1
Cc1cccc(C)c1NC(=O)c1cc2cccnc2n(Cc2ccccc2F)c1=O	13.0
COCC(C)NC(=O)c1cc2cccnc2n(Cc2ccc(F)cc2)c1=O (centres undefined)	-50.4
C/C=C/c1ccc([C@@H]2[C@H](CO)N3CCCCN(C(=O)Cc4cccnc4)C[C@@H]23)cc1	3.4
CN1C(=O)COc2c(C(=O)NC3CN4CCC3CC4)cc(Cl)cc21 (centres undefined)	10.1&12.3
O=C(Nc1ccc(F)c(F)c1)c1cc2cccnc2n(Cc2ccc(F)cc2)c1=O	46.3
CC(C)CCNC(=O)c1cc2cccnc2n(Cc2ccccc2)c1=O	-25.1
O=C(NCc1ccccc1)c1cc2cccnc2n(Cc2ccc(Cl)cc2)c1=O	-23.7
CO[C@H]1CCN(C(=O)c2cccc(C)n2)[C@H]2CN(CC3CC3)C[C@@H]12	61.4
Cc1ccc(NC(=O)c2cc3cccnc3n(Cc3ccc(F)cc3)c2=O)cc1C	98.9
Cc1ccc2c(CCN)c(C)n(C)c2c1	0.4
CN(C)CCN1CC[C@H]2[C@@H]1CCN2C(=O)Cc1cccs1	7.5
Fc1cccnc1N1CCC2(CNCCC2(F)F)C1 (centres undefined)	73.0
CC(Cc1ccccc1F)NCc1noc(-c2ccc3c(c2)OCO3)n1 (centres undefined)	-48.4
O=C(NCc1cccnc1)c1cc2cccnc2n(Cc2ccccc2F)c1=O	53.4

Structures listed so far containing a carbonyl joined to an NH by a bond outside any ring (11):
SMILES	Tg IFNy HTS
COc1ccc(CCNC(=O)c2cc3cccnc3n(Cc3ccccc3)c2=O)cc1OC	14.9
COc1cccc(NC(=O)c2c(O)c3cccnc3n(Cc3ccccc3)c2=O)c1	193.5
CC(C)NC(=O)C1CC2CN(Cc3ccncc3)CC1O2 (centres undefined)	3.1
Cc1cccc(C)c1NC(=O)c1cc2cccnc2n(Cc2ccccc2F)c1=O	13.0
COCC(C)NC(=O)c1cc2cccnc2n(Cc2ccc(F)cc2)c1=O (centres undefined)	-50.4
CN1C(=O)COc2c(C(=O)NC3CN4CCC3CC4)cc(Cl)cc21 (centres undefined)	10.1&12.3
O=C(Nc1ccc(F)c(F)c1)c1cc2cccnc2n(Cc2ccc(F)cc2)c1=O	46.3
CC(C)CCNC(=O)c1cc2cccnc2n(Cc2ccccc2)c1=O	-25.1
O=C(NCc1ccccc1)c1cc2cccnc2n(Cc2ccc(Cl)cc2)c1=O	-23.7
Cc1ccc(NC(=O)c2cc3cccnc3n(Cc3ccc(F)cc3)c2=O)cc1C	98.9
O=C(NCc1cccnc1)c1cc2cccnc2n(Cc2ccccc2F)c1=O	53.4

Next part
SMILES	Tg IFNy HTS
COc1ccc(NC(=O)c2c(O)c3cccnc3n(Cc3ccccc3)c2=O)cc1	0.1
CN1C[C@H]2CCCO[C@H]2[C@H](Nc2ccccn2)C1	9.5
Cc1cc(C(=O)N2C[C@@H]3CN(Cc4ccsc4)CCO[C@@H]3C2)no1	7.5
c1cncc(OC[C@H]2CCC3C(CCN3Cc3ccco3)O2)c1 (some centres undefined)	-5.6
CN1C(=O)N(C)C(=O)C2(Cc3ccccc3N3CCOCC32)C1=O (centres undefined)	20.5
Cc1ccc(-n2nccn2)c(C(=O)N2CCN(c3nc4cc(Cl)ccc4o3)CC[C@H]2C)c1	5.7
O=C(CN1CCCC2(CNC(=O)O2)C1)NCc1ccccn1 (centres undefined)	5.1
CC(C)OC(=O)C1C2c3ccccc3C(c3ccccc32)C1C(=O)OC(C)C (centres undefined)	22.2
c1cncc(OC[C@@]23COC[C@@H]2CN(Cc2cccs2)C3)c1	-40.3
COc1cccc(CCNC(=O)c2cc3cccnc3n(Cc3ccc(Cl)cc3)c2=O)c1	8.0
CC(C)OCCCNC1CCN(C)CC1	9.0
O=C(NCc1cc(F)cc(F)c1)c1c(O)c2cccnc2n(Cc2ccccc2)c1=O	-103.2*
Cc1ccc(NC(=O)c2cc3cccnc3n(Cc3ccccc3F)c2=O)cc1	84.6
COCCN1CCc2c(CNc3ncccn3)cncc2C1	11.3
O=C(N[C@H]1CN2CCC1CC2)c1ccc(Cl)cc1	-23.3
NS(=O)(=O)c1ccc(CC(=O)N2CCCCC2CN2CCCCC2)cc1 (centres undefined)	-5.2
CC(C)N1CCC2(CC1)C(=O)Nc1ccc(C(=O)NC3CC3)cc12	74.2
CN(C)CC1CCC2(COCCN(Cc3cccnc3)C2)O1 (centres undefined)	-28.1
CC(C)CNC(=O)c1cc2cccnc2n(Cc2ccccc2)c1=O	-94.5*
CCn1cc(C(=O)c2ccc(F)cc2)c2ccnc(Cl)c21	-66.3
c1cncc(CN2CCOCC3(CCC(Cn4cncn4)O3)C2)c1 (centres undefined)	27.8
Nc1nonc1CC(=O)N1CCCCC1CN1CCCCC1 (centres undefined)	29.3
CC(NC(=O)c1cc2cccnc2n(Cc2ccccc2)c1=O)c1ccccc1 (centres undefined)	-90.7*
Cc1cccc(N2CCN(CCn3cccn3)c3nc(C)ccc3C2)n1	5.3
N[C@@H](Cn1oc(=O)[nH]c1=O)C(=O)O	18.9

Continued.
SMILES	Tg IFNy HTS
Cc1ccccc1-n1c(Cn2ncc3c(N)ncnc32)nc2cccc(C)c2c1=O	9.0
C=C[C@H]1CN2CC[C@H]1C[C@@H]2[C@H](O)c1ccnc2ccccc12	2.3
Cc1c(C(=O)N2CCC3(CC2)OCCO3)oc2ccc3c(c12)C(O)CC1(CCCCC1)O3 (centres undefined)	-35.4
CCN1CC(C(=O)O)CN2CCN(C(=O)Cc3ccccc3)CC2C1 (centres undefined)	107.7
CNC(=O)N[C@@H]1c2cccc(F)c2C2CNCC21 (some centres undefined)	-33.6
CC(Cn1cncn1)NCc1ccc2nonc2c1 (centres undefined)	12.8
Cc1nocc1C(=O)N1CCC2(CC1)COCCN2CCN(C)C	54.9
CS(=O)(=O)NCc1cncc2c1CCN(C1CCOC1)C2 (centres undefined)	-7.3
COc1ccc(CCNCc2sccc2C)cc1	-48.5
COc1cc(CC(=O)N2CCCN3CCC[C@H]3C2)cc(OC)c1OC	2.1
c1cn(CCc2cnc[nH]2)c(-c2ccc3occc3c2)n1	-43.6
O=C(c1ccco1)N1CC2CNC(C2)C1 (centres undefined)	67.9
O=C(CN1C2CCC1CC(O)(c1ccccn1)C2)N1c2ccccc2Sc2ccccc21 (centres undefined)	-12.2
c1cnc(N2CCO[C@H]3CN(Cc4cccs4)C[C@@H]32)nc1	-71.1*
CC12CCC3C(CC=C4CC5(CCC43C)OCCO5)C1CCC2=O (centres undefined)	-13.3
CC(=O)Nc1ccc(Cc2ccc(NC(C)=O)cc2)cc1	17.6
O=C(O)C[C@@H]1CC[C@H]2NC[C@@H](O)COC[C@@H]2O1	2.1
CNC(=O)CN1CCOCC12CCN(c1cc(OC)ncn1)CC2	1.0
O=C(NC1CCCCCC1)c1cc2cccnc2n(Cc2ccc(F)cc2)c1=O	-38.3
C/C=C/c1ccc(C2[C@H]3CNC[C@@H]2N3Cc2ccccn2)cc1 (some centres undefined)	-3.5&-15.1
c1cncc(OCC23CCCOC2CCN(Cc2ccoc2)C3)c1 (centres undefined)	-20.1
CCC1CN(Cc2cc(Cl)c(OC)cc2OC)CCN1C(C)C (centres undefined)	-1.3
CC(C)(C)CN1CC2CN(C(=O)CCc3cccnc3)CC2C1 (centres undefined)	14.8
CN(CCc1ccccc1)C1CCCN(C(=O)Cc2c[nH]c(=O)n(C)c2=O)C1 (centres undefined)	1.7
CCn1nc(C)c(NC(=O)CN2C[C@H]3C[C@@H](C2)c2cccc(=O)n2C3)c1C	0.0

Sorted by SMILES length (low to high): some entries from above.
SMILES	Tg IFNy HTS
CC(Cn1cncn1)NCc1ccc2nonc2c1 (centres undefined)	12.8
CNC(=O)N[C@@H]1c2cccc(F)c2C2CNCC21 (some centres undefined)	-33.6
CCC1CN(Cc2cc(Cl)c(OC)cc2OC)CCN1C(C)C (centres undefined)	-1.3
c1cn(CCc2cnc[nH]2)c(-c2ccc3occc3c2)n1	-43.6
CCn1nc(C)c(NC(=O)CN2C[C@H]3C[C@@H](C2)c2cccc(=O)n2C3)c1C	0.0

The results go on:
SMILES	Tg IFNy HTS
C=CCN1CCC23c4c5ccc(O)c4OC2/C(=N\NC(=O)c2ccccc2)CCC3(O)C1C5 (centres undefined)	29.1
c1ccc(C2CC2)c(OCC2=NCCN2)c1	13.0&14.1&12.8
O=C(Nc1ccccc1)c1cc2cccnc2n(Cc2ccc(Cl)cc2)c1=O	227.9
Cc1ccc(CN2CC[C@H]3[C@H](CO[C@H]3CNc3ncccn3)C2)o1	-3.5
CC(=O)OCC1=C(C(=O)O)N2C(=O)[C@@H](NC(=O)CCCC(N)C(=O)O)C2SC1.[Zn] (some centres undefined)	26.9
COc1ccc(C2=CCN(Cc3ccccc3)CC2)cc1OC	277.5
Cc1ccc(-c2cccc3c2CCNC3)nn1	-0.1
CN(C)C[C@@]12COC[C@@H]1CN(Cc1ccc3ccccc3n1)C2	4.5
COc1ccc(OC)c(NC(=O)c2cc3cccnc3n(Cc3ccc(Cl)cc3)c2=O)c1	28.8
Cc1cc(C(=O)CN2CCCC2)c(C)n1-c1ccc(F)cc1	11.7
CCc1cccc(CC)c1NC1=NCCN1	13.6
CC(O)CN1C[C@H]2CCC[C@@H](CNc3ncccn3)[C@@H]2C1 (some centres undefined)	14.3
c1cncc(-c2ccc(C3[C@H]4CNC[C@@H]3N4CC3CC3)cc2)c1 (some centres undefined)	-2.3
O=c1[nH]c2ccc(Cl)cc2c(N[C@@H]2CN3CCC2CC3)c1-c1nc2ccccc2[nH]1	-75.7*
C[C@]12C[C@H]3S[C@H]3C[C@@H]1CC[C@@H]1[C@@H]2CC[C@]2(C)[C@@H](O)CC[C@@H]12	-70.0
CCOc1ccccc1NC(=O)CCN1[C@@H]2CC[C@H]1CC(O)C2 (some centres undefined)	24.0
COc1ccc(NC(=O)c2cc3cccnc3n(Cc3ccccc3)c2=O)cc1OC	81.7
CC(=O)c1ccc(N2CCC3(CC2)CC(C(=O)O)N(C)C3)nc1 (centres undefined)	-0.2
Cc1sc2c(c1C)C(c1ccc(Cl)cc1)=N[C@@H](CC(=O)Nc1ccc(O)cc1)c1nnc(C)n1-2	-7.8&-65.9
c1cncc(C2CCCN2)c1 (centres undefined)	13.2
O=c1[nH]ncc(N2CCOCC2)c1Cl	-10.4
Fc1cc(F)c2c(c1)[C@H]1C=CC[C@H]1C(c1cccnc1)N2 (some centres undefined)	-73.8*
COc1ccc(OC)c(C(O)C(C)NC(C)(C)C)c1 (centres undefined)	9.4
O=C(NCCc1c[nH]c2ccccc12)c1cc2cccnc2n(Cc2ccccc2)c1=O	60.2
CSc1ccc(C(=O)C2CCCN(Cc3nc4ccccc4s3)C2)cc1 (centres undefined)	1.3

(next part)
SMILES	Tg IFNy HTS
C[C@]12CC[C@H](O)C[C@H]1CC[C@@H]1[C@@H]2CC[C@]2(C)[C@@](O)(c3ccoc3)CC[C@]12O	-2.5
CCN(CC)CCO[C@H]1CC[C@@]2(C)C(=CC[C@@H]3[C@@H]2CC[C@]2(C)C(=O)CC[C@@H]32)C1	-65.7
CCCN(CCC)C1CCc2ccc(O)cc2C1 (centres undefined)	-76.2*!
Cc1nc(CCNC(=O)[C@@]23CNC[C@@H]2CN(C)C3)cc(=O)[nH]1	-1.7
Cc1cc(F)ccc1CC(=O)N1CCN(C)C(C(=O)O)C1 (centres undefined)	-0.4
COc1ccc(/C=C/C(=O)C2C(=O)N(C)C34CCCC3C2c2ccccc2O4)cc1 (centres undefined)	13.3
c1cncc(CN2CCCC23CCCC3)c1	-0.9
COc1cccc([C@@H]2CN(C(=O)C3CCOCC3)[C@@H]3C4CCN(CC4)[C@@H]32)c1	-1.8
CC1=CC[C@@H]2CN(Cc3cc(=O)[nH]c(=O)[nH]3)C[C@@H]2C1	10.3
Cc1ccnc(-n2cccc2CN2[C@@H]3CC[C@H]2CN(C)C(=O)C3)c1	4.5
CCCC(C)C1(CC)C(=O)NC(=O)NC1=O (centres undefined)	27.0
O=C(c1cccnc1)C1CCCN(Cc2cc3ccccc3[nH]c2=O)C1 (centres undefined)	-2.4
c1ccc([C@H]2CN(Cc3ccccn3)[C@@H]3C4CCN(CC4)[C@H]23)cc1	-0.8
CCN(CC)CCN1C[C@H](Oc2cccnc2)[C@@H]2OCCC[C@@H]21	-3.9
COc1ccc(N2C(=O)NC(=O)C3(Cc4cccc(F)c4N4CCC(c5ccccc5)CC43)C2=O)cc1 (centres undefined)	-99.3*
CC(=O)N1C[C@H]2CCCC(N3CCN(c4ncccn4)CC3)[C@@H]2C1 (some centres undefined)	2.2
CCc1nn2c(=O)cc(CN3C[C@@H]4[C@@H]5CC[C@@H](C5)[C@@H]4C3)nc2s1	28.4
CC(C)N1CCO[C@H]2CN(C(=O)c3ccccn3)C[C@@H]21	52.5
CCn1c(C)cc(C)c(C(=O)N2CCCC3(CCNC3)C2)c1=O (centres undefined)	27.7
Cc1noc(C)c1CN1CCC2C1CC(=O)N2c1cnn(C)c1 (centres undefined)	-0.9
c1cnc2c(c1)CNCCN2Cc1ccncc1	-1.6
Cc1nc(COC[C@@]23COC[C@@H]2CN(Cc2ccccn2)C3)cs1	5.0
COc1ccc(CNC(=O)c2cc3cccnc3n(Cc3ccc(Cl)cc3)c2=O)cc1	-113.5*
Cc1ncc(CNC(=O)N(CCCl)[NH2+][O-])c(N)n1	-55.7

A portion of the library, so the mix of outcomes need not match the whole.
